# Source: PubChem BioAssay (National Center for Advancing Translational Sciences (NCATS))
# VDR inhibitor = vitamin D3 receptor (human) inhibition. P11473. VDR-SRC2-3 peptide fluorescence polarization, 2 h. Potency, µM, for inactives: max response, negative = inhibition, usual class: inhibitors. actives 0.93% (n = 400,000); active = well fitted inhibition curve with a large enough effect; inconclusive = small, poorly fitted or top-dose-only effect, or another doubt; inactive = no such curve, though single readings can be large or run the other way; note: series mostly up to about 120 µM
# Target sequence (P11473 whole entry, looked up): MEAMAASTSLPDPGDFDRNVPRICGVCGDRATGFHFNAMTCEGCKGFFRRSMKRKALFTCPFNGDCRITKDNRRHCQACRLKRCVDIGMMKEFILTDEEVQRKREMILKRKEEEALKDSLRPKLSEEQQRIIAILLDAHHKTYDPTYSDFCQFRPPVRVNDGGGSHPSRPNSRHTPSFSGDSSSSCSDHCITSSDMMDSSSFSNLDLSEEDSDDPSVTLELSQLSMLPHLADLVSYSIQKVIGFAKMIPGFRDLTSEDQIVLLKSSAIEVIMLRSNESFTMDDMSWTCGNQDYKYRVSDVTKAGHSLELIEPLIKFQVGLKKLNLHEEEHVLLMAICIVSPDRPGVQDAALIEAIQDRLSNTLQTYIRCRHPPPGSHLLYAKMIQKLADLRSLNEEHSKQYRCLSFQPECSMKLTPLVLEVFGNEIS
#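 Reagent solutions, kept cold and dark, are dispensed first; compounds are then pinned in at 23 nl, plates briefly spun, and incubated 2 h at ambient temperature. Inhibition of VDR–SRC2-3 peptide binding is read by fluorescence polarization.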
# Starred values were filed as active, the others as inactive; ? = inconclusive; & = joins results of further samples; [ ] = remark or other dose. % is set by controls: 0 for no effect and ±100 for the full control effect; potency is the fitted concentration of half-maximal effect.
SMILES,VDR inhibitor
COc1ccc(C(=O)C2CCCN(Cc3c(O)cccc3OC)C2)cc1OC (configuration not stated),20%
CC(C)(C)[C@H]1C=C(C(=O)Nc2ccccc2)O[C@@H](OCc2ccc(CO)cc2)C1,-14%
COC(=O)c1cccc(NC(=O)c2cccs2)c1C,-9%
Cc1ccc2c(C(=O)CN3CCCCC3CCO)c(C)[nH]c2c1 (configuration not stated),1%
CCC(=O)Nc1ccccc1-c1nc2ccccc2n(CC(=O)Nc2ccccc2OC)c1=O,5%
CO/N=C/NC(=O)N1OC[C@@H]2COc3ccc4ccccc4c3[C@@H]21,18%
O=C(N/N=C/c1ccncc1)c1cc(Br)ccc1OCc1ccccc1,-7%
Cc1ccc(NC(=O)CNCc2ccccn2)cc1S(=O)(=O)N(C)C,6%
CCCCN(C)C(=O)c1nc2ccccn2c1CN1CCC[C@H]1CO,-6%
COc1cc(NS(=O)(=O)c2ccc3c(c2)OCC(C(=O)N2CCCC2)O3)cc(OC)c1 (configuration not stated),3%
COc1ccc(-c2cc(N)n(S(=O)(=O)c3ccc(C)cc3)n2)c(OC)c1,3%
Cc1nc2c(nnn2Cc2ccccc2)c(=O)[nH]1,?
CCCNc1ncnc2nc[nH]c12,9%
COc1ccc(S(=O)(=O)N2CCN(Cc3cccs3)CC2)cc1OC,-11%
Cc1ccc(-n2nc3c(N4CCC(C(=O)NC5CCCCC5)CC4)nnc(C)c3c2C)cc1,2%
COc1cc(/C=C2\CCCc3c2nc2ccccc2c3C(=O)O)cc(OC)c1O,-24%
CCOc1cccc(OCCOCCN(C)Cc2ccccc2)c1,21%
CC(=O)Nc1nnc(/C=C/c2cccc([N+](=O)[O-])c2)s1,7%
Cc1cc(=O)[nH]c(SCC(=O)Nc2ccccc2C)n1,-16%
O=C(CN1C(=O)c2cccc3cccc(c23)C1=O)N1CCN(c2ccccn2)CC1,-8%
Cc1ccc(NS(=O)(=O)c2ccc3c(c2)C(C(C)C)C(=O)N3)cc1C (configuration not stated),4%
CCN1C(=O)c2cccc3c(Cl)ccc1c23,4%
CCOC(=O)CN1CC23C=CC(O2)C(C(=O)Nc2ccc(OC)cc2OC)C3C1=O (configuration not stated),-12%
O=C(NCCc1ccc2c(c1)OCCO2)c1cc(F)cc(F)c1,2%
COc1cccc(C2c3c(-c4ccccc4O)n[nH]c3C(=O)N2Cc2cccnc2)c1 (configuration not stated),7%
# Continuation.
SMILES,VDR inhibitor
COc1ccc2cc(CCNC(=O)c3c(-c4ccccc4Cl)noc3C)c(=O)[nH]c2c1,-13%
CC(NCc1cccn1C)c1ccccc1 (configuration not stated),31%[activator]
O=C1CN(C(=O)COc2ccc(Cl)c(Cl)c2)c2ccccc2N1,-3%
CC(C)c1ccc(NC2CCCN(C(=O)c3cscn3)C2)cc1 (configuration not stated),20%
Clc1ccc(-c2noc(CN(Cc3ccccn3)CC3CCCO3)n2)cc1 (configuration not stated),22%
O=C(Nc1nc2c(s1)CCCC2)C1CCCN1C(=O)c1cccs1 (configuration not stated),3%
CCc1ccc2[nH]c(O)c(N=Nc3nc(-c4ccccc4)cs3)c2c1,-9%
COC(=O)c1ccc(Oc2nc3c(c(=O)n(C)c(=O)n3C)n2Cc2ccc(Cl)c(Cl)c2)cc1,-1%
COc1ccccc1NC(=S)N(Cc1ccco1)Cc1cc2cc(C)ccc2[nH]c1=O,-2%
CC(C)=CCC[C@](C)(O[C@@H]1O[C@H](CO)[C@@H](O)[C@H](O)[C@H]1O)[C@H]1CC[C@]2(C)[C@@H]1[C@H](O)C[C@@H]1[C@@]3(C)CC[C@H](O[C@@H]4O[C@H](CO)[C@@H](O)[C@H](O)[C@H]4O[C@@H]4O[C@H](CO)[C@@H](O)[C@H](O)[C@H]4O)C(C)(C)[C@@H]3[C@@H](O)C[C@]12C,-10%
O=C(COC(=O)c1ccc([N+](=O)[O-])o1)NC1CCS(=O)(=O)C1 (configuration not stated),-8%
CC[C@H](C)[C@H](NC(=O)OCc1ccccc1)C(=O)OCC(=O)Nc1ccc(N2CCOCC2)cc1,?
COC(=O)CSc1nnc(NC(=O)c2ccc3c(c2)OCO3)s1,11%
O=C1Nc2c(Br)cccc2C1=O,-25%
O=C(NCCC1=CCCCC1)c1cc(S(=O)(=O)N2CCOCC2)ccc1Cl,-11%
Cn1ccnc1SCC(=O)Nc1ccc2c(c1)COC2=O,-3%
O=C(CSc1nncs1)NCCNC(=O)CSc1nncs1,-19%
CCCN1CCN(S(=O)(=O)c2cn(C)nc2C)CC1,-1%
COc1ccc(OC)c(NS(=O)(=O)c2ccc3[nH]c4c(c3c2)CCCCC4)c1,14%
N#Cc1ccc(C(c2nnnn2CCc2ccccc2)N2CCCCCC2)cc1 (configuration not stated),-8%
COc1cc(OC)c2c(-c3cccc(-c4cccc(N)c4)c3)cc(=O)oc2c1,-5%&-11%
Cc1ccc(-n2c(=O)c3c(c4cc(C)ccc4n3C)n(Cc3ccc(F)cc3)c2=O)cc1,-1%
O=C1CC(N2CCN(C(c3ccccc3)c3ccccc3)CC2)C(=O)N1 (configuration not stated),2%
COc1ccc(-n2nc(C)cc2Nc2ccccc2C(=O)O)cc1,-16%
Cc1ccc2nc(CN3CCN(S(=O)(=O)c4ccc(C(C)C)cc4)CC3)oc2c1,11%
# (listing goes on)
SMILES,VDR inhibitor
COc1cc(C(=O)Nc2nnc(SC)s2)c([N+](=O)[O-])cc1OC,-4%
COc1ccc(-c2coc3cc(OC(C)=O)cc(OC(C)=O)c3c2=O)cc1,4%
CCc1ccc2[nH]c(=O)c(CN(CCCN3CCOCC3)C(=O)Nc3ccc(F)cc3)cc2c1,-2%
COc1cc(C2C3=C(CCCC3=O)Nc3ccc4ncccc4c32)ccc1O (configuration not stated),14%
COc1ccc(CC(=O)N/N=C(\C)CC(=O)Nc2ccc3c(c2)OCCO3)cc1,-8%
C/C(NC1CCCCC1)=C(/C#N)C(=O)NCCN1CCOCC1,13%
CCCCC(=O)Nc1cnc(NC(=O)c2ccco2)cc1C,1%
Fc1cccc(F)c1/C=N/NC(=S)Nc1cccnc1,-10%
CN(C)CCCNC(=O)CCc1nc2ccccc2c(=O)[nH]1,-9%
Cc1c(C(=O)N/N=C/c2ccncc2)nnn1-c1nonc1N,?
COc1ccc2nc(C)cc(SCC(=O)Nc3c(C)cccc3C)c2c1,-18%
Cc1ccc(N(CC(=O)NC2CCCCCC2)S(=O)(=O)c2c(C)nn(C)c2C)cc1,9%
O=C1CC(Sc2cccs2)C(=O)N1c1ccccc1 (configuration not stated),-22%
CC(C)(C)n1ncc2c(=O)n(Cc3ccccc3Br)cnc21,-1%
CCCCOC(=O)Nc1nc(CC(=O)OCC)cs1,1%
Cc1ccc(C(=O)CC(SCC(=O)O)c2ccc([N+](=O)[O-])cc2)cc1 (configuration not stated),?
Cc1cccnc1,-1%
Cc1ccc(NC(=O)CCC(=O)NNC(=O)Cc2ccccc2)cc1C,4%
CC(C)CNC(=O)C1CCN(S(=O)(=O)c2ccc(-n3cnnn3)cc2)CC1,5%
N#Cc1cc(Cl)c(NCC2CCCO2)cc1C#N (configuration not stated),10%
COCCNC(=O)/C(C#N)=C/c1ccc2c(c1)OCO2,11%
O=C(NCc1ccccc1)NC1(C(=O)N2CCN(c3ncccn3)CC2)CCCCC1,-2%
COc1ccc(S(=O)(=O)Nc2cc3c4c(oc3c3ccccc23)CC(C)(C)CC4=O)cc1,-16%
CCCCCC1CCC(C(=O)N2CCOCC2)CC1 (configuration not stated),-16%
COc1ccccc1-n1ncc2c(=O)[nH]c(SCC(=O)Nc3cccc(F)c3)nc21,-1%

# Sorted by formula weight (rising): 15 of the compounds above.
SMILES,VDR inhibitor
N#Cc1cc(Cl)c(NCC2CCCO2)cc1C#N (configuration not stated),10%
COCCNC(=O)/C(C#N)=C/c1ccc2c(c1)OCO2,11%
O=C1CC(Sc2cccs2)C(=O)N1c1ccccc1 (configuration not stated),-22%
Fc1cccc(F)c1/C=N/NC(=S)Nc1cccnc1,-10%
CCCCC(=O)Nc1cnc(NC(=O)c2ccco2)cc1C,1%
CN(C)CCCNC(=O)CCc1nc2ccccc2c(=O)[nH]1,-9%
C/C(NC1CCCCC1)=C(/C#N)C(=O)NCCN1CCOCC1,13%
Cc1ccc(C(=O)CC(SCC(=O)O)c2ccc([N+](=O)[O-])cc2)cc1 (configuration not stated),?
CC(C)(C)n1ncc2c(=O)n(Cc3ccccc3Br)cnc21,-1%
COc1ccc(-c2coc3cc(OC(C)=O)cc(OC(C)=O)c3c2=O)cc1,4%
CC(C)CNC(=O)C1CCN(S(=O)(=O)c2ccc(-n3cnnn3)cc2)CC1,5%
O=C(NCc1ccccc1)NC1(C(=O)N2CCN(c3ncccn3)CC2)CCCCC1,-2%
COc1ccccc1-n1ncc2c(=O)[nH]c(SCC(=O)Nc3cccc(F)c3)nc21,-1%
COc1ccc(S(=O)(=O)Nc2cc3c4c(oc3c3ccccc23)CC(C)(C)CC4=O)cc1,-16%
CCc1ccc2[nH]c(=O)c(CN(CCCN3CCOCC3)C(=O)Nc3ccc(F)cc3)cc2c1,-2%

# (further entries)
SMILES,VDR inhibitor
Cc1c(C)c2ccc(OCC(=O)NCc3ccccn3)cc2oc1=O,-7%
Cc1ccccc1OC(=O)Cn1c(C(F)(F)F)nc2ccccc21,-23%
Cc1ccc(-n2nnnc2SCC(=O)NCC2(N3CCCCC3)CCCCC2)c(C)c1,-4%
O=S(=O)(c1ccccc1)N1CCN(c2nc3ccccc3s2)CC1,16%
Cc1ccc(S(=O)(=O)N2CCC(=O)N(CCOC(=O)Nc3ccc(C)c(C)c3)CC2)cc1,2%&-9%
O=C(CCCN1C(=O)c2ccccc2C1=O)N1CCOCC1,-12%
N/C(=N\OC(=O)CCC(=O)O)c1ncc(C(F)(F)F)cc1Cl,8%
OCC1(CCc2ccccc2)CCN(Cc2cnc(N3CCCC3)s2)CC1,6%
Cc1ccc(C(=O)NCc2ccc(Cl)c(Cl)c2)o1,5%
O=C(C1CCN(S(=O)(=O)c2cccs2)CC1)N1CCN(c2ccccc2F)CC1,-3%
Nc1ccccc1-n1cccc1,-13%
COc1cccc(/C=N/NC(=O)c2ccc(COc3ccc(Cl)cc3Cl)o2)c1,6%
Cc1ccc(C)n1-c1nnc(N2CCC(C(=O)NCc3ccc(F)cc3)CC2)s1,9%
C=CCc1c(O)nc(SCC(=O)c2ccccc2)[nH]c1=O,0%
CC1CCN(C(=O)CN(C2CCCCC2)S(C)(=O)=O)CC1,13%
O=C(COCc1cc(-c2ccco2)on1)Nc1cccc(O)c1,7%
CCN(CC(=O)Nc1c(F)cccc1F)C(=O)C1CC(=O)N(CCc2ccccc2)C1 (configuration not stated),-13%
COc1cc(CNC(C)(C)C)cc(Br)c1OCc1cccs1,7%
Cc1nc(C(C)N(C)Cc2nc(Cc3ccccc3F)no2)c(C)s1 (configuration not stated),-3%
CCCNC(=O)NC(=O)CN1C(=O)NC(C)(c2ccc3ccccc3c2)C1=O (configuration not stated),-10%
CCN1CCN(c2cc(C)c3cc(NC(=O)c4cc(OC)cc(OC)c4)ccc3n2)CC1,-7%&10%
O=C(NCc1ccccn1)c1ccc(N2CCCC2=O)cc1,-8%
CC(C)C[C@H]1CNC(=O)C(=O)N1CC1CCN(CCc2ccc(-c3ccccc3)cc2)CC1,12%
Cc1ccc(CSc2nncn2-c2ccccn2)cc1,-8%
CCOC(=O)c1ccc(C(=O)OCC)nc1,2%
# Next part.
SMILES,VDR inhibitor
Cc1cccc(Nc2nc(NCc3ccco3)c3ccccc3n2)c1,-4%
Cc1ccc(N2CC(C(=O)O)CC2=O)cc1 (configuration not stated),6%
CN1OC2C(=O)N(c3ccccc3)C(=O)C2C1c1ccc(F)cc1 (configuration not stated),8%
CSc1nc2c(c(=O)[nH]1)C(c1cccs1)C1=C(CCCC1=O)N2 (configuration not stated),-1%
CCOC(=O)C(CCC(C)=O)C(=O)c1ccccc1 (configuration not stated),-12%
CCn1c2ccccc2c2nnc(N3CCN(c4cccc(Cl)c4)CC3)nc21,5%
O=P(OC1CCCCC1)(OC1CCCCC1)C(Nc1ccccc1)c1cccnc1 (configuration not stated),1%
CC(C)Cc1ccc(S(=O)(=O)N2CCC(c3ccncc3)CC2)cc1,8%
O=C(O)/C=C/c1cn(-c2ccccc2)nc1-c1ccc2c(c1)OCCO2,?
Clc1ccc(CCNC(c2ccc(Cl)cc2)c2nnc(-c3ccccc3)o2)cc1 (configuration not stated),1%
CCOC(=O)C(=CNc1cscc1S(=O)(=O)C(C)C)C(=O)OCC,6%
Nc1nc(SCC(=O)c2ccc(F)cc2)n[nH]1,-2%
O=C1NC[C@@H](c2ccccc2)OC(=O)[C@@H](Cc2ccc(F)cc2)CC/C=C/C[C@H]1CC(=O)N(CCO)Cc1ccccc1,8%
Cc1cccc(N(C)C(=O)C2CCC(CNS(=O)(=O)c3cccc4nsnc34)CC2)c1 (configuration not stated),-17%
O=C(OCC(=O)c1ccc[nH]1)c1cncc(Br)c1,0%
CCNC(=O)COC(=O)c1csc2c1CCCC2,-9%
CC(C)CCn1c(=O)c2cccnc2n(CC(=O)Nc2ccccc2F)c1=O,13%
Cc1cc(C)cc(-n2c(SCC(=O)N3CCC(C)CC3)nc3c([nH]c4ccccc43)c2=O)c1,1%
CCOC(=O)c1c(NC(=O)C2c3ccccc3Oc3ccccc32)sc(C(=O)N(CC)CC)c1C,71µM*
CCOc1ccc(NC(=O)c2ccc(OC)cc2)cc1,12%
COC(=O)c1ccc(NC(=O)CCN2CCN(c3ccccc3)CC2)cc1,2%
Cc1cc(C)c(S(=O)(=O)n2c([N+](=O)[O-])cnc2C)cc1C,-8%
O=C(c1cnccn1)N1CCCC(N2CCN(c3cccc(Cl)c3)CC2)C1 (configuration not stated),-14%
COc1cc(Cc2cnc(N)nc2N)cc(OC)c1OC,2%&3%&-13%&4%&-11%
CC(C)(C)CC(=O)Nc1nnc(SCC(=O)Nc2ccccc2F)s1,-1%
CC(=O)c1ccc(N2CCN(c3ncccn3)CC2)cc1,-3%
COC(=O)C(C)N(C(=O)c1ccc(Cl)cc1)c1c(C)cccc1C (configuration not stated),-13%

# Only part of the results is shown. The share of hits here may be higher or lower than overall.
